Screening data (PubChem)
Env fusion inh: HIV envelope-mediated fusion inhibition; inhibition, % at 12.3 µM; 360,000 compounds, 1.1% hits; HeLa-JRFL Env/CEM21 cell fusion, luciferase;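 active = mean replicate inhibition score of at least 50 and every replicate individually at or above 50; inconclusive = only one of the two criteria met; inactive = mean below 50 and not all replicates reaching 50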;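 also: 0% = plate neutral controls and 100% = maraviroc near 300 nM; one replicate is shown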
UUG fidelity: yeast start codon fidelity modulation | S. cerevisiae UUG-firefly luciferase reporter, luminescence/redox ratio | activity score, % at 18.7 µM | 350,000 compounds, 0.13% hits | AID 602363;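 active = replicate mean at a twofold rise or more, about +100% in these data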;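 also: firefly luciferase made from a UUG start codon reports start codon fidelity; reporter light over untreated wells divided by growth signal over untreated wells; some hits fall short of that in this replicate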
Active calls of the source: *; u = inconclusive; [ ] = dose if it differs, or a comment. An excerpt. The share of hits here may be higher or lower than overall.

SMILES	Env fusion inh	UUG fidelity
C[C@H]1CN([C@@H](C)CO)C(=O)c2cc(NC(=O)c3ccncc3)ccc2O[C@@H]1CN(C)Cc1ccc(Oc2ccccc2)cc1	-6[16.7 µM]	1
COC(=O)C[C@H]1C=C[C@@H](NC(=O)c2ccccc2)[C@H](CO)O1	-7[16.7 µM]	-9
COc1ccc(S(=O)(=O)N(C)C[C@H]2Oc3ccc(NS(=O)(=O)c4cccs4)cc3CC(=O)N([C@@H](C)CO)C[C@@H]2C)cc1	-8[16.7 µM]	32
COc1ccccc1-c1cnc2c(c1)C(=O)N([C@H](C)CO)C[C@H](C)[C@@H](CN(C)Cc1ccncc1)O2	5[16.7 µM]	-6
CC(C)C(=O)Nc1ccc2c(c1)C(=O)N(C)[C@@H]1CC[C@@H](CC(=O)O)O[C@H]1CO2	9[16.7 µM]	-4
C[C@H](CO)N1C[C@H](C)[C@@H](CN(C)CC2CC2)OCCCC[C@H](C)Oc2ccc(NS(=O)(=O)c3ccc(Cl)cc3)cc2C1=O	4[16.7 µM]	13
CC(C)CC#Cc1cnc2c(c1)C(=O)N([C@@H](C)CO)C[C@@H](C)[C@H](CN(C)C(=O)C1CCCCC1)O2	33[16.7 µM]	15
CO[C@H]1CN(C)C(=O)c2cc(NC(C)=O)ccc2OC[C@@H](C)N(C(=O)C2CC2)C[C@@H]1C	-6[16.7 µM]	-4
C[C@@H]1CCCCO[C@@H](CN(C)C(=O)CCCN(C)C)[C@H](C)CN([C@@H](C)CO)C(=O)c2cc(NS(C)(=O)=O)ccc2O1	3[16.7 µM]	6
CCCC(=O)Nc1ccc2c(c1)OC[C@H](C)N(CCC(F)(F)F)C[C@@H](C)[C@@H](OC)CN(C)C2=O	-10[16.7 µM]	14
C[C@H]1CN([C@@H](C)CO)C(=O)c2cc(NC(=O)c3ccncc3)ccc2O[C@@H]1CN(C)Cc1ccc2c(c1)OCO2	4[16.7 µM]	0
C[C@@H]1CN([C@H](C)CO)C(=O)Cc2cc(NC(=O)Nc3ccc(C(F)(F)F)cc3)ccc2O[C@H]1CN(C)Cc1ccccc1	16[16.7 µM]	0
C[C@@H]1CN([C@@H](C)CO)C(=O)c2cc(NC(=O)Cc3ccccc3)ccc2O[C@@H]1CN(C)C(=O)Nc1cccc2ccccc12	9[16.7 µM]	10
C[C@H]1CN([C@@H](C)CO)C(=O)Cc2cc(NC(=O)Nc3ccccc3)ccc2O[C@@H]1CN(C)S(=O)(=O)c1ccc(F)cc1	30[16.7 µM]	13
CNC[C@@H]1Oc2ncc(C#CC3CCCC3)cc2C(=O)N([C@@H](C)CO)C[C@@H]1C	-24[16.7 µM]	9
CC(=O)N(C)C[C@@H]1Oc2ncc(-c3ccc(F)cc3)cc2C(=O)N([C@H](C)CO)C[C@@H]1C	1[16.7 µM]	8
C[C@@H]1CCCCO[C@H](CN(C)C(=O)c2ccncc2)[C@@H](C)CN([C@H](C)CO)C(=O)c2cc(NC(=O)Cc3ccccc3)ccc2O1	1[16.7 µM]	3
Cc1ccc(S(=O)(=O)Nc2ccc3c(c2)CC(=O)N([C@@H](C)CO)C[C@@H](C)[C@@H](CN(C)Cc2ccc(Cl)c(Cl)c2)O3)cc1	-14[16.7 µM]	10
Cc1ccc(-c2cnc3c(c2)C(=O)N([C@H](C)CO)C[C@H](C)[C@H](CN(C)C(=O)c2cccnc2)O3)cc1	-7[16.7 µM]	-11
C[C@@H]1CCCCO[C@H](CN(C)C(=O)C2CCCCC2)[C@H](C)CN([C@@H](C)CO)C(=O)c2cc(NC(=O)Cc3ccccc3)ccc2O1	-57[16.7 µM]	10
CNC[C@H]1Oc2ccc(NC(=O)C3CC3)cc2CC(=O)N([C@@H](C)CO)C[C@H]1C	3[16.7 µM]	-1
O=C(C[C@H]1CC[C@@H](NC(=O)Nc2ccccc2)[C@H](CO)O1)NCc1ccccn1	11[16.7 µM]	-10
Cc1ccc(S(=O)(=O)N[C@@H]2CC[C@@H](CCNC(=O)CN3CCOCC3)O[C@H]2CO)cc1	-14[16.7 µM]	0
O=C(CC1CC1)Nc1ccc2c(c1)[C@@H]1C[C@@H](CC(=O)N3CCCCC3)O[C@@H](CO)[C@@H]1O2	-9[16.7 µM]	-3
C[C@@H]1CN([C@H](C)CO)C(=O)c2cc(N(C)C)ccc2O[C@@H](C)CCCCO[C@@H]1CN(C)Cc1ccc(C(F)(F)F)cc1	15[16.7 µM]	-1

Other compounds follow.
SMILES	Env fusion inh	UUG fidelity
Cc1ccc(-c2cnc3c(c2)C(=O)N([C@@H](C)CO)C[C@@H](C)[C@@H](CN(C)C(=O)c2ccc(F)cc2)O3)cc1	1[16.7 µM]	13
COc1ccc(CN(C)C[C@H]2Oc3ccc(NC(=O)Nc4ccc5c(c4)OCO5)cc3C(=O)N([C@H](C)CO)C[C@H]2C)cc1	0[16.7 µM]	2
C[C@H](CO)N1C[C@H](C)[C@@H](CN(C)Cc2ccncc2)OCCCC[C@H](C)Oc2ccc(NC(=O)Nc3ccc4c(c3)OCO4)cc2C1=O	-4[16.7 µM]	5
Cc1noc(C)c1NC(=O)Nc1ccc2c(c1)C(=O)N([C@@H](C)CO)C[C@@H](C)[C@@H](CN(C)CC1CCCCC1)OCCCC[C@@H](C)O2	-85[16.7 µM]	30
C[C@H](CO)N1C[C@H](C)[C@@H](CN(C)C(=O)Nc2ccc3c(c2)OCO3)Oc2c(NS(=O)(=O)c3ccc(Cl)cc3)cccc2C1=O	6[16.7 µM]	3
CO[C@H]1CN(C)C(=O)c2cc(NC(C)=O)ccc2OC[C@H](C)N(Cc2cc(F)ccc2F)C[C@H]1C	-3[16.7 µM]	-8
C[C@H]1CN([C@@H](C)CO)C(=O)Cc2cc(NC(=O)Cc3cn(C)c4ccccc34)ccc2O[C@@H]1CN(C)C(=O)Nc1ccc2c(c1)OCO2	-22[16.7 µM]	2
C[C@@H]1CN([C@H](C)CO)C(=O)Cc2cc(NC(=O)Nc3ccccc3)ccc2O[C@H]1CN(C)Cc1ccc(Oc2ccccc2)cc1	-3[16.7 µM]	17
Cc1noc(C)c1S(=O)(=O)Nc1ccc2c(c1)C(=O)N([C@H](C)CO)C[C@H](C)[C@H](CN(C)C(=O)Nc1ccc(F)cc1)OCCCC[C@H](C)O2	u	-3
CNC[C@H]1OCCCC[C@@H](C)Oc2ccc(NS(C)(=O)=O)cc2C(=O)N([C@@H](C)CO)C[C@H]1C	4[16.7 µM]	0
COc1ccc(-c2ccc([C@@H]3[C@@H](C#N)N(C(=O)C4CCCCC4)[C@H]3CO)cc2)cc1	12[16.7 µM]	-10
C[C@@H]1CN([C@@H](C)CO)C(=O)c2cc(NC(=O)Nc3ccc(F)cc3)ccc2O[C@@H](C)CCCCO[C@H]1CN(C)C(=O)CCCN(C)C	17[16.7 µM]	37
C[C@@H]1CN([C@@H](C)CO)C(=O)c2cc(-c3ccc(F)cc3)cnc2O[C@@H]1CN(C)Cc1cncnc1	-79[16.7 µM]	-2
C[C@@H]1CCCCO[C@H](CN(C)CC2CCCCC2)[C@H](C)CN([C@@H](C)CO)C(=O)c2cc(NS(=O)(=O)c3ccc(Cl)cc3)ccc2O1	5[16.7 µM]	26
COc1cccc(C#Cc2ccc3c(c2)O[C@@H](CN(C)C)[C@H](C)CN([C@@H](C)CO)S3(=O)=O)c1	5[16.7 µM]	35
C[C@H]1CCCCO[C@H](CN(C)S(=O)(=O)c2cccs2)[C@@H](C)CN([C@@H](C)CO)C(=O)c2cc(NC(=O)CCCN(C)C)ccc2O1	7[16.7 µM]	8
C[C@@H]1CN([C@@H](C)CO)C(=O)c2cccc(NC(=O)Nc3ccccc3)c2O[C@@H]1CN(C)C(=O)Nc1ccc(C(F)(F)F)cc1	0[16.7 µM]	-2
C[C@H](CO)N1C[C@H](C)[C@@H](CN(C)S(=O)(=O)c2cccs2)OCCCC[C@H](C)Oc2ccc(NC(=O)Nc3ccc(F)cc3)cc2C1=O	-10[16.7 µM]	-17
C[C@H]1CN([C@@H](C)CO)C(=O)Cc2cc(NC(=O)Cc3cn(C)c4ccccc34)ccc2O[C@@H]1CN(C)CC1CCCCC1	0[16.7 µM]	8
C[C@H](CO)N1C[C@H](C)[C@H](CN(C)C(=O)C2CCC2)Oc2ncc(-c3ccccc3F)cc2C1=O	14[16.7 µM]	14
C[C@@H]1CCCCO[C@H](CN(C)C(=O)c2ccccc2)[C@H](C)CN([C@H](C)CO)C(=O)c2cc(NS(=O)(=O)c3cccs3)ccc2O1	-14[16.7 µM]	6
COc1ccc(CN(C)C[C@@H]2Oc3c(NC(=O)Nc4ccccc4)cccc3C(=O)N([C@H](C)CO)C[C@H]2C)cc1	-5[16.7 µM]	12
C[C@H]1CN([C@@H](C)CO)C(=O)c2cccc(NC(=O)C3CCCCC3)c2O[C@H]1CN(C)Cc1ccccc1	-26[16.7 µM]	15
O=C(N[C@@H]1CC[C@H](CCn2cc(C3(O)CCCC3)nn2)O[C@H]1CO)C1CC1	0[16.7 µM]	-12
C[C@@H]1CN([C@H](C)CO)C(=O)c2cc(-c3cccnc3)cnc2O[C@H]1CN(C)S(C)(=O)=O	-3[16.7 µM]	-14

Given as a markdown table: eight of the compounds above
| structure | Env fusion inh | UUG fidelity |
| --- | --- | --- |
| C[C@@H]1CN([C@@H](C)CO)C(=O)c2cc(NC(=O)Nc3ccc(F)cc3)ccc2O[C@@H](C)CCCCO[C@H]1CN(C)C(=O)CCCN(C)C | 17[16.7 µM] | 37 |
| C[C@@H]1CN([C@@H](C)CO)C(=O)c2cc(-c3ccc(F)cc3)cnc2O[C@@H]1CN(C)Cc1cncnc1 | -79[16.7 µM] | -2 |
| C[C@@H]1CCCCO[C@H](CN(C)CC2CCCCC2)[C@H](C)CN([C@@H](C)CO)C(=O)c2cc(NS(=O)(=O)c3ccc(Cl)cc3)ccc2O1 | 5[16.7 µM] | 26 |
| COc1cccc(C#Cc2ccc3c(c2)O[C@@H](CN(C)C)[C@H](C)CN([C@@H](C)CO)S3(=O)=O)c1 | 5[16.7 µM] | 35 |
| C[C@H]1CCCCO[C@H](CN(C)S(=O)(=O)c2cccs2)[C@@H](C)CN([C@@H](C)CO)C(=O)c2cc(NC(=O)CCCN(C)C)ccc2O1 | 7[16.7 µM] | 8 |
| C[C@@H]1CN([C@@H](C)CO)C(=O)c2cccc(NC(=O)Nc3ccccc3)c2O[C@@H]1CN(C)C(=O)Nc1ccc(C(F)(F)F)cc1 | 0[16.7 µM] | -2 |
| C[C@H](CO)N1C[C@H](C)[C@@H](CN(C)S(=O)(=O)c2cccs2)OCCCC[C@H](C)Oc2ccc(NC(=O)Nc3ccc(F)cc3)cc2C1=O | -10[16.7 µM] | -17 |
| C[C@H]1CN([C@@H](C)CO)C(=O)Cc2cc(NC(=O)Cc3cn(C)c4ccccc34)ccc2O[C@@H]1CN(C)CC1CCCCC1 | 0[16.7 µM] | 8 |

New compounds follow:
SMILES	Env fusion inh	UUG fidelity
COc1cccc(-c2ccc3c(c2)O[C@@H](CN(C)CC2CC2)[C@@H](C)CN([C@H](C)CO)S3(=O)=O)c1	11[16.7 µM]	-11
COc1ccc(NC(=O)N(C)C[C@@H]2Oc3ncc(-c4cccc(OC)c4)cc3C(=O)N([C@H](C)CO)C[C@@H]2C)cc1	-18[16.7 µM]	1
COc1ccc(NC(=O)N[C@H]2CC[C@@H](CCNC(=O)c3cc(Cl)cc(Cl)c3)O[C@@H]2CO)cc1	30[16.7 µM]	3
N#C[C@@H]1[C@H](c2ccc(-c3cccc(F)c3)cc2)[C@@H](CO)N1S(=O)(=O)c1cccc(F)c1	35[16.7 µM]	-4
C[C@@H]1CCCCO[C@@H](CN(C)C(=O)Cc2ccccc2)[C@@H](C)CN([C@H](C)CO)C(=O)c2cc(NC(=O)Nc3ccccc3)ccc2O1	14[16.7 µM]	-7
C[C@@H]1CN([C@H](C)CO)S(=O)(=O)c2ccc(C3=CCCCC3)cc2O[C@@H]1CN(C)C(=O)Cc1cccnc1	-1[16.7 µM]	8
C[C@@H]1CN([C@H](C)CO)C(=O)c2cc(NC(=O)Cc3ccccc3)ccc2O[C@@H]1CN(C)C(=O)Nc1cccc2ccccc12	24[16.7 µM]	16
Cc1ccccc1-c1cnc2c(c1)C(=O)N([C@H](C)CO)C[C@@H](C)[C@@H](CN(C)Cc1ccccc1F)O2	23[16.7 µM]	-2
C[C@@H]1CN([C@@H](C)CO)C(=O)c2cc(NC(=O)Nc3cccc4ccccc34)ccc2O[C@H]1CN(C)C(=O)Nc1ccc(F)cc1	-6[16.7 µM]	-10
COCC(=O)N[C@H]1CC[C@H](CC(=O)N2CCCCC2)O[C@H]1CO	11[16.7 µM]	10
Cc1noc(C)c1S(=O)(=O)Nc1ccc2c(c1)C(=O)N([C@@H](C)CO)C[C@H](C)[C@H](CN(C)S(=O)(=O)c1ccc(Cl)cc1)OCCCC[C@@H](C)O2	-26[16.7 µM]	0
CCCC#Cc1ccc2c(c1)O[C@@H](CN(C)Cc1ccc3c(c1)OCO3)[C@@H](C)CN([C@@H](C)CO)S2(=O)=O	42[16.7 µM]	-20
C[C@@H]1CN([C@@H](C)CO)C(=O)Cc2cc(NC(=O)Nc3ccc(F)cc3)ccc2O[C@H]1CN(C)S(=O)(=O)c1ccccc1	-2[16.7 µM]	-3
C[C@H](CO)N1C[C@H](C)[C@@H](CN(C)C(=O)Nc2ccc3c(c2)OCO3)Oc2ccc(NC(=O)Cc3ccccc3)cc2CC1=O	10[16.7 µM]	19
CCCC#Cc1cnc2c(c1)C(=O)N([C@@H](C)CO)C[C@@H](C)[C@@H](CN(C)Cc1ccc(F)cc1)O2	2[16.7 µM]	-9
O=C(Nc1cc(F)ccc1F)N[C@@H]1CC[C@H](CCn2cc(C3CCCCC3)nn2)O[C@H]1CO	-20[16.7 µM]	13
